Screening data (PubChem BioAssay)
STK33 kin inh = human STK33 kinase inhibition; Q9BYT3; ADP-Glo luminescence, MBP substrate; inhibition, % at 12.5 µM; hit rate 0.44% among 27,000; in the data active = inhibition above about 20%
Target sequence (Q9BYT3 whole entry, looked up): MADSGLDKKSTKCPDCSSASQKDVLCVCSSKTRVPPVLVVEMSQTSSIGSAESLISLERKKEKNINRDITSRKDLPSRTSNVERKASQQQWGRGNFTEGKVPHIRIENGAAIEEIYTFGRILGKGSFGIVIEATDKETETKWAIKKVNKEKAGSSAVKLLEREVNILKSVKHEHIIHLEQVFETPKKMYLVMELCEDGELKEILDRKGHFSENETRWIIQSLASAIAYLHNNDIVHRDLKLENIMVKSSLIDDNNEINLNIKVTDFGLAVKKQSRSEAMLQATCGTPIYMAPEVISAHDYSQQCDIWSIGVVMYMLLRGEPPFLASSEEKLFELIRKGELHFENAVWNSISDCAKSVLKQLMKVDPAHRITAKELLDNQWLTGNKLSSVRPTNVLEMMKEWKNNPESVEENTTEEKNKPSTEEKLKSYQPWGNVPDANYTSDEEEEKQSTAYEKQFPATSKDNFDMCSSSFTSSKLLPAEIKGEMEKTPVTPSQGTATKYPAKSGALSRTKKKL
The depositor's hits bear a star. The list is partial, and most or all hits are left out here.

The opening 2 compounds (preview)
SMILES | STK33 kin inh
CS(=O)(=O)c1ccc([C@@H](O)[C@@H](CF)NC(=O)C(Cl)Cl)cc1 | -0.3
CCC1(C)CC(=O)NC1=O (stereo unspecified) | -0.8

This part in full (from the top)
SMILES | STK33 kin inh
CS(=O)(=O)c1ccc([C@@H](O)[C@@H](CF)NC(=O)C(Cl)Cl)cc1 | -0.3
CCC1(C)CC(=O)NC1=O (stereo unspecified) | -0.8
COc1ccc2c(c1)c(CC(=O)O)c(C)n2C(=O)c1ccc(Cl)cc1 | -7.1
CC(C)(C)NC(=O)[C@@H]1C[C@@H]2CCCC[C@@H]2CN1C[C@@H](O)[C@H](Cc1ccccc1)NC(=O)[C@H](CC(N)=O)NC(=O)c1ccc2ccccc2n1 | -1.0
CN1[C@@H]2CC[C@H]1CC(OC(=O)C(CO)c1ccccc1)C2 (stereo partly specified) | -2.7
CN1CCC(=C2c3ccccc3Sc3ccccc32)CC1 | -1.5
CN1[C@@H]2CC[C@H]1CC(OC(=O)[C@H](CO)c1ccccc1)C2 (stereo partly specified) | 1.1
CN(C)CCOC(c1ccccc1)c1ccccc1 | 0.4
CC(=O)OCC(=O)[C@H]1CC[C@H]2[C@@H]3CCC4=CC(=O)CC[C@]4(C)[C@H]3CC[C@]12C | 1.2
CCCOc1cc(N)ccc1C(=O)OCCN(CC)CC | -16.6
C#C[C@]1(O)CC[C@H]2[C@@H]3CCC4=CC(=O)CC[C@@H]4[C@H]3CC[C@@]21C | -6.9
CC1CC(OC(=O)C(O)c2ccccc2)CC(C)(C)N1C (stereo unspecified) | -1.4
CCOC(=O)OC(C)OC(=O)[C@@H]1N2C(=O)[C@@H](NC(=O)[C@H](N)c3ccccc3)[C@H]2SC1(C)C (stereo partly specified) | 1.6
CC[N+](C)(CC)CCOC(=O)C1c2ccccc2Oc2ccccc21 | 3.0
COc1c2occc2cc2ccc(=O)oc12 | -18.7
C#C[C@]1(O)CC[C@H]2[C@@H]3CCC4=Cc5oncc5C[C@]4(C)[C@H]3CC[C@@]21C | 0.7

Part of the list above, as tab-separated lines:
Molecule	STK33 kin inh
CCOC(=O)OC(C)OC(=O)[C@@H]1N2C(=O)[C@@H](NC(=O)[C@H](N)c3ccccc3)[C@H]2SC1(C)C (stereo partly specified)	1.6
CC(C)(C)NC(=O)[C@@H]1C[C@@H]2CCCC[C@@H]2CN1C[C@@H](O)[C@H](Cc1ccccc1)NC(=O)[C@H](CC(N)=O)NC(=O)c1ccc2ccccc2n1	-1.0
CN(C)CCOC(c1ccccc1)c1ccccc1	0.4
CN1CCC(=C2c3ccccc3Sc3ccccc32)CC1	-1.5
C#C[C@]1(O)CC[C@H]2[C@@H]3CCC4=CC(=O)CC[C@@H]4[C@H]3CC[C@@]21C	-6.9
